Assay outcomes as filed in PubChem BioAssay.
Arbovirus anti: antivirals against arbovirus infection, primary screen, cell-based, full library, 10K replicate subset | arbovirus infection cell-based antiviral screen | inhibition, % at 10 µM | 200,000 compounds, 0.37% hits;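 active = inhibition from about 30%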;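 note: bluetongue infection of BSR cells; cell survival read as ATP light after 72 h; 0% = infected wells without compound and 100% = uninfected wells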
YopH PTP inh: YopH tyrosine phosphatase inhibitors, primary screen, biochemical, fluorescence Ex485/Em525. YopH tyrosine phosphatase [Yersinia enterocolitica]. 140,000 compounds, 0.16% hits. inhibition, %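 (about 10 µM by stock and volumes)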;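 active = inhibition of 50% or more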;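 note: controls were vehicle for no effect and minimum signal wells for full effect; inactives centre near -20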
Mtb growth: M. tuberculosis H37Rv growth inhibitors, H37Rv strain (AID 1626) | M. tuberculosis H37Rv growth inhibition; higher % means a stronger effect | inhibition, % at 10 µM; hits with a dose series show IC50 in µM | 220,000 compounds, 0.95% hits;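 active = confirmed in a dose series; inconclusive = inhibition above 80% but not taken into the dose series; inactive = below 80% or under 30% at every dose of the series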;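 note: bacteria incubated seven days before Alamar blue readout; 0% = bacteria only wells and 100% = bacteria with antibiotic wells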
RecA intein inh: Mtb RecA intein splicing inhibitors, primary screen, biochemical, fluorescence, HTS; inhibition, %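 (about 9 µM by stock and volumes)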; cell-free RecA intein splicing; Protein RecA (Mycobacterium tuberculosis (strain ATCC 25618 / H37Rv)), P9WHJ3; 290,000 compounds, 0.75% hits; in the data active = inhibition above about 30%; inconclusive = no clear call, values can overlap the other calls;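 note: 0% = vehicle wells and 100% = reference inhibitor control wells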
Target sequence (P9WHJ3 whole entry, looked up): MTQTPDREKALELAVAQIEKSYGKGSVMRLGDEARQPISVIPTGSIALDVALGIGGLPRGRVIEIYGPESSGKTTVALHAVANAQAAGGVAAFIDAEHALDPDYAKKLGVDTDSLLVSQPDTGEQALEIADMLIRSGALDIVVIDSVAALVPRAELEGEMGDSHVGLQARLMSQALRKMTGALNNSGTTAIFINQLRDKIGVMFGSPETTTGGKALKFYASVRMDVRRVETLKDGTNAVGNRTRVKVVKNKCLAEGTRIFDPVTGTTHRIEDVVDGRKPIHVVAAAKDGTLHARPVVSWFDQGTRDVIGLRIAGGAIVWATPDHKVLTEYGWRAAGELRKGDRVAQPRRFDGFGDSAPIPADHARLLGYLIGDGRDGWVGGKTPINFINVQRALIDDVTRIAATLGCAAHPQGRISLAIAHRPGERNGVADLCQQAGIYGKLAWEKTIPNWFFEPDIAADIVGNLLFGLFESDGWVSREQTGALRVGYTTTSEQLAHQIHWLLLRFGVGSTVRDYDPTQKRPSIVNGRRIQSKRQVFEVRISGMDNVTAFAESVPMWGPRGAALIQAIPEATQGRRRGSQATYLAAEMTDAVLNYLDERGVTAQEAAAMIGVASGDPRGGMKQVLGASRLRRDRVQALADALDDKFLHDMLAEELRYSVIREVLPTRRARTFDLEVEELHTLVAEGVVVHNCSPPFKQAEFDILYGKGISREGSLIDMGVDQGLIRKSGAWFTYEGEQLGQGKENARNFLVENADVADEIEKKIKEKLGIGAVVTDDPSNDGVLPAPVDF
Mtb bLac sens: beta-lactam sensitization of Mtb H37Rv, H37Rv | M. tuberculosis H37Rv growth with meropenem, percent inhibition; hits of this screen are not shown here | inhibition, % at 25 µM | 330,000 compounds, 0.27% hits;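 active = about 74% or more and at least 40 points above the plate without the antibiotic, then above 30% in a dose series; inconclusive = first-round hits that could not be retested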;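 note: growth measured after seven days incubation then overnight dye step; 0% = bacteria only wells and 100% = bacteria with antibiotic; twin plates without the antibiotic show which effects depend on it; some results filed as inactive read as strong as hits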
Arbovirus anti repeat: further read-out of Arbovirus anti, marked with its call; inhibition, %; measured here: 10K subset replicate screen; many hits read low in the repeat;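 first of two repeat runs on a subset; 0% = infected and 100% = uninfected wells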
Active calls of the source: *; u = inconclusive; x = not tested or not shown. Only part of the results is shown, so the mix of outcomes need not match the whole.

SMILES | Arbovirus anti | YopH PTP inh | Mtb growth | RecA intein inh | Mtb bLac sens | others
Cc1ccnc(NC(=O)CCCOc2ccccc2)c1 | 4 | x | -2% | 1.9 | 9
CCOc1ccc(NC(=O)CSc2nc3cccnc3n2CCOC)cc1 | 12 | -46 | 8% | 1.0 | 86
Cc1ccc(S(=O)(=O)N2CCC(C(=O)NCc3ccccc3Cl)CC2)cc1 | 1 | 4 | -2% | -3.4 | -11
COC(=O)c1sc2nc(C)nc(SCC(=O)N3CCC(C(=O)O)CC3)c2c1C | 2 | x | 6% | -1.7 | 2
Cn1c(SCC(=O)NCc2ccc3c(c2)OCO3)nnc1-c1cccs1 | 1 | -21 | -5% | -0.6 | -1
COc1ccc(-c2nnc(C)c3nocc23)cc1 | x | x | x | 2.6 | 0
CCOC(=O)C1CCN(C(=O)COC(=O)c2oc3ccccc3c2C)CC1 | x | x | x | 0.1 | 0
CC(C)(C)NC(=O)Cn1c(SCC(=O)NC2CCCC2)nc2ccccc21 | x | x | x | -1.1 | -6
CCOC(=O)c1[nH]c2cc3c(cc2c1NC(=O)CN1CCCCC1C)OCO3 (stereo unspecified) | -7 | -19 | x | 1.6 | -5
Cc1ccc(C(=O)OCCc2sc[n+](Cc3ccccc3)c2C)cc1 | -14 | -40 | -9% | 0.1 | 3
CN(Cc1cnccn1)C(=O)CC1C(=O)NCCN1CC(c1ccccc1)c1ccccc1 (stereo unspecified) | 3 | x | -5% | 4.2 | -2
Cc1onc(-c2ccccc2Cl)c1C(=O)OCC(=O)c1ccccc1 | 6 | 7 | -1% | 8.7 | 5
C#CCNC(=O)C1=C[C@H](C2CCCCC2)C[C@H](OCCCCO)O1 | 2 | x | -16% | 3.3 | -7
COC(=O)c1ccc(Cl)c(NC(=O)CN2CCOCC2)c1 | 9 | -4 | -4% | 1.8 | -8
O=C(NC1(C(F)(F)F)N=C2SCCN2C1=O)c1cccnc1 (stereo unspecified) | 6 | -7 | 3% | -3.0 | -5
O=C(CSc1nnc(CNC(=O)c2cccs2)o1)c1ccc(Cl)cc1 | 0 | -13 | -13% | 0.3 | -2
CCOC(=O)Cc1csc(NC(=O)NC2(C(F)(F)F)Oc3ccccc3O2)n1 | -8 | -23 | -4% | -4.6 | 0
CN1CC(=O)NC1=NC(=O)C12CC3CC(CC(C3)C1)C2 | -13 | -24 | u | 0.3 | 96
CC1(C)N([O-])C2=C(c3ccccc3C2=O)[N+](=O)C1(C)C | -3 | 10 | -7% | -1.2 | 6
COc1ccccc1N1CCN(C(=O)c2nn(-c3ccccc3OC)c(=O)c3ccccc23)CC1 | -1 | -5 | -17% | x | x
CCn1c(SCc2nc3ccccc3s2)nnc1-c1cccs1 | 18 | -9 | 2% | 3.5 | -3
COc1ccc(CCN(C)C(=O)c2ccc(OCC(=O)N3CCOCC3)c(OC)c2)cc1OC | x | x | x | -4.6 | -3
CN1C(=O)CC(N2CCC(c3nc4ccccc4s3)CC2)C1=O (stereo unspecified) | 7 | -22 | 11% | -2.2 | -11
COc1cc2cc(C(=O)N3CCN(Cc4ccc5c(c4)OCO5)CC3)[nH]c2cc1OC | x | x | x | 0.6 | 4
Cc1c(N=C2NN=C(c3c[nH]c4ccccc34)CS2)c(=O)n(-c2ccccc2)n1C | x | x | -3% | -0.6 | -3
Cn1c(=O)oc2cc(S(=O)(=O)N3CCOCC3)ccc21 | 4 | -17 | 0% | 1.1 | -11
C=CCn1c(Sc2nnc(C)s2)nc2c1c(=O)[nH]c(=O)n2C | 11 | -9 | -3% | 0.3 | 2
O=C(O)C1CC(c2ccccc2F)=NO1 (stereo unspecified) | 12 | -37 | 4% | -1.7 | 4
COc1ccccc1-c1nnc2n1N=C(C(C)(C)C)CS2 | 13 | -32 | -6% | 1.1 | -2
COc1ccc(S(=O)(=O)N(C)c2nc3ccccc3n3c(CC(C)C)nnc23)cc1 | x | x | x | 0.9 | -8
c1ccc2c(c1)CC(CN1CCNCC1)O2 (stereo unspecified) | x | x | x | -2.5 | -3
COc1ccc(CNC(=O)C2(c3ccc(Cl)cc3)CC2)cc1 | -32 | -32 | 21% | 2.3 | 86
Cc1ccc(NC(=O)CSc2nnc(/N=C/N(C)C)s2)cc1 | 1 | x | -12% | 0.1 | 5
O=C(Nc1ccc2c(c1)CCC2)c1ccc(Br)o1 | -7 | 17 | 35% | x | 94
Cc1ccc(N(C)/N=C/c2ccc(Cl)cc2Cl)nn1 | x | x | x | 0.2 | 5
CCCOc1nc2ccccc2cc1/C=C/C(=O)O | 1 | x | 2% | -7.8 | 4

6 compounds drawn at random from the list so far, as already listed:
SMILES | Arbovirus anti | YopH PTP inh | Mtb growth | RecA intein inh | Mtb bLac sens | others
O=C(Nc1ccc2c(c1)CCC2)c1ccc(Br)o1 | -7 | 17 | 35% | x | 94
Cc1ccc(NC(=O)CSc2nnc(/N=C/N(C)C)s2)cc1 | 1 | x | -12% | 0.1 | 5
COc1ccc(S(=O)(=O)N(C)c2nc3ccccc3n3c(CC(C)C)nnc23)cc1 | x | x | x | 0.9 | -8
O=C(O)C1CC(c2ccccc2F)=NO1 (stereo unspecified) | 12 | -37 | 4% | -1.7 | 4
Cc1ccc(N(C)/N=C/c2ccc(Cl)cc2Cl)nn1 | x | x | x | 0.2 | 5
CCCOc1nc2ccccc2cc1/C=C/C(=O)O | 1 | x | 2% | -7.8 | 4

(next part)
SMILES | Arbovirus anti | YopH PTP inh | Mtb growth | RecA intein inh | Mtb bLac sens | others
Cc1cc(OCC(=O)Nc2ccccc2F)nc(C(C)C)n1 | -4 | -5 | -3% | 0.4 | -1
CCOC(=O)C(=NCCOC)NNc1cc(Cl)ccc1Cl | -14 | -25 | 60% | -2.5 | 97
CCN(CC)S(=O)(=O)c1ccc(C(=O)NCC(=O)N/N=C/c2ccccc2OC)cc1 | x | x | x | 1.7 | -9
CC(=Nc1ccc(O)cc1)c1sc2ccccc2c1O | -21 | -6 | -5% | -8.8 | 0
c1ccc2c(c1)OCC(CNc1ncnc3nc[nH]c13)O2 (stereo unspecified) | 2 | -28 | -2% | -0.1 | -1
CC(=O)c1c(C)[nH]c(C(=O)OCC(=O)Nc2cc(S(=O)(=O)N3CCCC3)ccc2Cl)c1C | 10 | -11 | 0% | 6.8 | 3
O=C(Nc1ccc(Cl)c(Cl)c1)c1ccc(Cn2c(=O)[nH]c3ccsc3c2=O)cc1 | -18 | -33 | 12% | -1.2 | 1
COC(=O)[C@H](CCSC)NC(=O)Nc1ccc(C(C)C)cc1 | -1 | -41 | 8% | 1.3 | 1
Nc1ccccc1SC1CC(=O)N(c2ccccc2Cl)C1=O (stereo unspecified) | x | x | 1% | -0.3 | -4
CNC(=O)c1cc(S(=O)(=O)NCc2ccncc2)ccc1OC | x | x | x | -5.7 | -4
CC(=O)Nc1ccc(NC(=O)CSc2nnc(NC(=O)C3CC3)s2)cc1 | x | x | x | 1.1 | -8
Cc1cc(C=O)c(C)n1C1CCCCC1 | 4 | -26 | 5% | -0.8 | -2
CC(C)CCNC(=O)c1nnc(Cc2ccc(Cl)cc2)o1 | 6 | -31 | 1% | 2.2 | -5
CC1=C(C#N)C(=O)NC(=O)/C1=C\c1ccc(-c2cc(C)c(C)cc2[N+](=O)[O-])o1 | 34* | x | 8% | 7.7 | x
COc1ccc(COCCN2CCN(S(=O)(=O)c3ccccc3)CCC2=O)cc1 | x | x | -8% | 1.9 | -2
CCCc1cc(=O)[nH]c(SCc2cccc(C)c2)n1 | 4 | 19 | -1% | 3.3 | -4
COC(=O)c1c(C)c(OC(=O)c2c(C)cc(O)c(C=O)c2O)cc(C)c1O | x | x | -9% | -2.4 | -5
COc1ccc(-c2[nH]ncc2-c2ccc3c(c2)OCCO3)c(O)c1 | 7 | -33 | 9% | 7.3 | 37
COc1cc(CNc2ccc(N3CCCCC3)cc2)ccc1OCC(=O)NC(C)(C)C | x | x | x | -4.5 | 0
Cc1cc(C)c(S(=O)(=O)Nc2ccccc2C(=O)N2CCCC2)c(C)c1 | x | x | x | 1.6 | 0
COc1ccc(N(CC(O)CN2CCOCC2)S(=O)(=O)c2ccccc2)cc1 (stereo unspecified) | x | x | x | -0.2 | -4
O=C(Nc1cscc1S(=O)(=O)c1ccccc1)c1ccccc1Cl | x | x | -6% | 3.6 | 2
CCOC(=O)C1=C(O)/C(=C\c2sccc2C)N=C1C | 0 | -23 | -12% | -0.5 | -2
CCOc1cc(/C=N\NC(=O)c2c(C)nc3ccccn23)ccc1O | x | x | x | -2.6 | 3

Three entries out of the list, ordered by length of the SMILES, rising.
SMILES | Arbovirus anti | YopH PTP inh | Mtb growth | RecA intein inh | Mtb bLac sens | others
CCOC(=O)C1=C(O)/C(=C\c2sccc2C)N=C1C | 0 | -23 | -12% | -0.5 | -2
c1ccc2c(c1)OCC(CNc1ncnc3nc[nH]c13)O2 (stereo unspecified) | 2 | -28 | -2% | -0.1 | -1
O=C(Nc1cscc1S(=O)(=O)c1ccccc1)c1ccccc1Cl | x | x | -6% | 3.6 | 2

Additional records:
SMILES | Arbovirus anti | YopH PTP inh | Mtb growth | RecA intein inh | Mtb bLac sens | others
Cc1ccc(S(=O)(=O)c2c[nH]c3ccc(Cl)cc3c2=O)cc1 | x | x | x | 0.2 | -9
CC(=O)Nc1ccc(N2C(C(C)=O)=NN(c3ccc(Cl)cc3)C2c2sccc2C)cc1 (stereo unspecified) | -5 | -7 | 3% | x | 97
CC1Cc2cc(S(=O)(=O)N3CCCC(C(=O)N4CCCCC4)C3)ccc2N1C(=O)C1CC1 (stereo unspecified) | x | x | x | 0.1 | -12
COc1ccccc1N(CC(=O)NCc1ccccn1)S(C)(=O)=O | 0 | -6 | -4% | 0.5 | -1 | Arbovirus anti repeat=-1
Cc1n[nH]c(=O)c2c(NC(=O)CSc3nnc(C4CC4)n3C)oc(C)c12 | x | x | x | 1.7 | 2
COc1ccc(NC(=O)c2cccc(Oc3ccc([N+](=O)[O-])cc3Cl)c2)cc1 | -8 | -24 | 11% | 10 | 6
CC[C@@]12C(=O)N(c3cccc(Cl)c3)C(=O)N1[C@H](c1ccc(Br)cc1)[C@@H]1C(=O)N(C(C)(C)C)C(=O)[C@@H]12 | x | x | x | -2.2 | 4
CCCOc1ccc2oc(=O)c3c(c2c1)CCCN3C(=O)CN(C)Cc1ccccc1 | -19 | -16 | 10% | 4.4 | 68
CN1CCN(NC(=O)c2ccc(COc3ccccc3Br)o2)CC1 | 4 | x | 3% | 1.9 | -10
Cc1ccc(NC(=O)C2CCN(S(=O)(=O)c3cccs3)CC2)c(O)c1 | x | x | x | 0.9 | -9
Cc1nnc(SCC(=O)NC(C)c2ccccc2)[nH]c1=O (stereo unspecified) | 1 | -23 | -2% | 3.2 | -17 | Arbovirus anti repeat=0
COc1ccc(CCNC(=O)Cc2nn(C)c(=O)c3ccccc23)cc1OC | 5 | 2 | 1% | 1.1 | 8
CCCc1nn(C)c(C(=O)Nc2ccc3ccccc3c2)c1Cl | 10 | -26 | 6% | 1.3 | 28
Cc1ccc2nc(NC(=O)c3ccc(NS(=O)(=O)c4cccs4)cc3)sc2c1 | -14 | -19 | 29% | -0.1 | 8
CC(C)COc1ccc(C(=O)Nc2ccc(NC(=O)c3ccco3)cc2)cc1 | x | x | x | -0.2 | 0
Cc1ccn2c(NC(=O)c3cccs3)c(-c3ccccc3)nc2c1 | 8 | -29 | -2% | 0.2 | -1
C/C(=C\c1ccc(Br)cc1)C(=O)c1c(C)cc(C)[nH]c1=O | x | x | x | 4.6 | -12
Cc1cc(C)cc(NC(=O)Cn2ncn3c(cc4ccccc43)c2=O)c1 | -4 | -41 | -4% | -0.7 | -9
CC(=O)N1N=C(c2ccccc2)CC1c1ccc2c(c1)OCO2 (stereo unspecified) | x | x | x | 0.4 | -5
COc1ccc(Nc2cc(C)nc3ncnn23)c(OC)c1 | -6 | -43 | -3% | 1.0 | -7
Nc1cc(=O)nc(SCC(=O)Nc2cccc3ccccc23)n1CCc1ccccc1 | -4 | -19 | -6% | -0.3 | -2
Cc1ccc(NC(=O)c2noc3c2CCc2ccccc2-3)cc1 | 10 | -18 | 4% | 4.7 | 1
CC(C)(CO)NC12CC3CC(CC(C3)C1)C2 | 16 | x | 7% | 2.3 | -2
CNC(=O)c1cccc2nc3ccccc3nc12 | x | x | 65% | -2.6 | 86
O=C1OC2(CCCCC2)OC(=O)C1=CNc1nc2ccccc2s1 | 8 | -7 | -2% | -0.6 | 11
Cc1ccc(O)c(-c2cc3ccccc3[nH]2)c1 | -2 | -7 | -18% | 26 | 1
CC(=O)c1ccc(OCc2cc(C(=O)N3CCCCCCC3)no2)cc1 | x | x | x | -3.7 | 92
